From PubChem BioAssay
Mtb hypoxia rep = inhibitors of hypoxia-regulated fluorescent reporter in Mycobacterium tuberculosis; actives 0.1% (n = 300,000); fluorescence inhibition, % (no concentration beside the values); M. tuberculosis hypoxia-regulated fluorescent reporter, fluorescence; AID 1159583;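 active = 35 to 45% if threefold the growth effect, above 45% if 1.5-fold the growth effect; inactive = the rest, general growth blockers included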;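 also: wells of about 50 µL received 100 nL stock; 0% = vehicle wells and 100% = reference inhibitor wells; whole bacteria with a GFP reporter of the hypoxia response; strong numbers were not always called active; many hits fall short of the cut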
Bead autofluor = flagged as autofluorescent in microsphere protease counterscreen; compound autofluorescence counterscreen, microsphere flow cytometry; active compounds read high; fluorescence intensity (concentration not given with the values); actives 3.1% (n = 360,000); AID 624483;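 active = at least 3 SD above the mean of all compounds, about 16000 in these data; inconclusive = too few beads counted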;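 also: 100 nL of 1 mM stock went into each well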
Sa ugtP lethal = growth inhibition of S. aureus ugtP deletion strain. S. aureus RN4220 ugtP deletion, OD600 growth, 16 h; some inactives read as strong as hits. actives 0.54% (n = 330,000). growth inhibition, % (test concentration not listed);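 active = z-score under -3 and OD600 up to 0.15 on both plates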;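 also: plate controls were untreated wells for no effect and antibiotic for full effect; wells of about 80 µL received 100 nL stock; the first replicate is given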
PrP 5UTR inh = inhibition of PrP 5' UTR reporter expression; AID 488862; actives 0.35% (n = 340,000); inhibition, % (concentration not given with the values); cell-based PrP 5' UTR mRNA reporter, plate reader;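 active = every replicate at 50% or more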;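 also: 0 = median of the neutral control wells; tested in H4 reporter cells; numbers are from one replicate; inactives centre near -14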
RN4220 kill = S. aureus RN4220 growth inhibition | OD600, 16 h | inhibition, % (test concentration not listed) | actives 0.33% (n = 330,000) | AID 1259311;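 active = z-score of -3 or lower and OD600 up to 0.18 on both plates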;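 also: plate controls were untreated cells for no effect and reference antibiotic for full effect; stock transfer was 100 nL into about 80 µL; one replicate is shown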
BJeLR lethal = kills HRASV12-expressing BJeLR cells | actives 0.17% (n = 300,000) | inhibition, % (test concentration not listed) | AID 1554 | BJeLR (HRASV12) viability, CellTiter-Glo ATP luminescence, 48 h; reference of the scale not given here;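 active = replicate mean above 50%; inconclusive = above 50% but judged a plate artefact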;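 also: 50 nL library stock added to about 25 µL; numbers are from one replicate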
Mtb hypoxia rep growth = recorded beside Mtb hypoxia rep, whose call it bears; growth inhibition, %; measured here: M. tuberculosis growth (absorbance);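 0% = vehicle and 100% = reference antibiotic; read after six days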
Numbers without * were called inactive; & = joins results of further samples.

How did CC(C)C(=O)Nc1cccc(C(=O)N2CCCCC2C)c1 (configuration not stated) do in these assays?
Bead autofluor: 4776; Sa ugtP lethal: -4.1; PrP 5UTR inh: -0.7; RN4220 kill: 2.6; BJeLR lethal: 4.2

What do the screens show for `COc1ccc([C@H]2CC(=O)C=C(c3ccc(OC(F)(F)F)cc3)C2)cc1`?
Mtb hypoxia rep: 4.5; Bead autofluor: 4059; Sa ugtP lethal: 41.1; PrP 5UTR inh: -9.6; RN4220 kill: -3.8; Mtb hypoxia rep growth: 9.4

How did NC(=O)C(Cc1ccccc1)NS(=O)(=O)c1ccc(N2CCCC2=O)cc1 (configuration not stated) do in these assays?
Mtb hypoxia rep: -1.2; Bead autofluor: 5365; Sa ugtP lethal: 5.1; PrP 5UTR inh: -8.4; RN4220 kill: 3.2; BJeLR lethal: 16.9; Mtb hypoxia rep growth: -1.5

Results for CCOC(=O)c1ccc(NS(=O)(=O)c2ccc3c(c2)NC(=O)CCS3)cc1 ?
Mtb hypoxia rep: -3.2; Bead autofluor: 5592; Sa ugtP lethal: -10.4; PrP 5UTR inh: -24.7; RN4220 kill: 2.7; BJeLR lethal: 1.7; Mtb hypoxia rep growth: 3.9

Results for COc1cccc(-c2nc(CS(=O)(=O)CC(=O)NCc3ccc4c(c3)OCO4)c(C)o2)c1 ?
Mtb hypoxia rep: -5.5; Bead autofluor: 5861; Sa ugtP lethal: -12.8; PrP 5UTR inh: -75.4; RN4220 kill: -6.8; BJeLR lethal: 5.9; Mtb hypoxia rep growth: 8.5

How did CC(/C=N/Nc1nc2ccccc2[nH]1)=C\c1ccccc1 do in these assays?
Bead autofluor: 2553; PrP 5UTR inh: -87.6; BJeLR lethal: -8.5

What do the screens show for `COc1ccc(CCNS(=O)(=O)c2cccc([N+](=O)[O-])c2)cc1OC`?
Mtb hypoxia rep: 9.0; Bead autofluor: 3330; Sa ugtP lethal: 0.8; PrP 5UTR inh: -14.7; RN4220 kill: 4.2; BJeLR lethal: 6.4; Mtb hypoxia rep growth: 1.3

What do the screens show for `CC(C)(C)NC(=O)C(c1ccc(-c2ccccc2)cc1)N(C[C@H]1CC[C@@H]([C@@H]2CC[C@H](CO)O2)O1)C(=O)c1ccccc1F` (some centres not stated)?
Mtb hypoxia rep: -1.8; Bead autofluor: 3525; Sa ugtP lethal: -5.7; PrP 5UTR inh: 5.9; RN4220 kill: 7.2; Mtb hypoxia rep growth: 14.4

How did CN(Cc1cnn(C)c1)C(=O)C1CCC(=O)N(Cc2cccc(F)c2)C1 (configuration not stated) do in these assays?
Mtb hypoxia rep: 14.3; Bead autofluor: 5288; Sa ugtP lethal: 11.7; PrP 5UTR inh: -29.5; RN4220 kill: 3.7; BJeLR lethal: -4.7; Mtb hypoxia rep growth: 8.3

What do the screens show for `CC(=O)Nc1ccc(S(=O)(=O)Nc2ccccc2C(=O)N2CCCC2)cc1`?
Mtb hypoxia rep: 14.0; Bead autofluor: 3651; Sa ugtP lethal: 8.3; PrP 5UTR inh: -23.6; RN4220 kill: 2.6; BJeLR lethal: 13.2; Mtb hypoxia rep growth: -1.3

Results for O=C(CSc1ccc2ccccc2c1)NC1CCCc2ccccc21 (configuration not stated) ?
Mtb hypoxia rep: -1.7; Bead autofluor: 2466; Sa ugtP lethal: 5.0; PrP 5UTR inh: -16.4; RN4220 kill: -0.5; BJeLR lethal: -15.0; Mtb hypoxia rep growth: 7.1

Results for CCC(=O)c1ccc(OCC(=O)OCC(=O)NCC2CCCO2)cc1 (configuration not stated) ?
Mtb hypoxia rep: 4.3; Bead autofluor: inconclusive; Sa ugtP lethal: 6.6; PrP 5UTR inh: 11.3; RN4220 kill: 2.5; BJeLR lethal: 8.4; Mtb hypoxia rep growth: -12.1

What do the screens show for `Cn1c(=O)c2c(SCc3cccnc3)nc(CC(C)(C)C)nc2n(C)c1=O`?
Mtb hypoxia rep: -16.4; Bead autofluor: 5736; Sa ugtP lethal: 1.4; PrP 5UTR inh: -23.4; RN4220 kill: 15.7; BJeLR lethal: -17.2; Mtb hypoxia rep growth: 14.6

Results for CC(=O)Nc1ccc(S(=O)(=O)NC2C3(C)CCC(C3)C2(C)C)cc1 (configuration not stated) ?
Mtb hypoxia rep: 2.7; Bead autofluor: 2906; Sa ugtP lethal: -0.5; PrP 5UTR inh: -13.1; RN4220 kill: 6.6; BJeLR lethal: 0.4; Mtb hypoxia rep growth: -2.5

How did NC(=O)C1(N2CCCCC2)CCN(C(=S)NCCc2ccccc2)CC1 do in these assays?
Mtb hypoxia rep: 13.3; Bead autofluor: 4719; Sa ugtP lethal: 5.0; PrP 5UTR inh: -28.0; RN4220 kill: 2.3; BJeLR lethal: 10.2; Mtb hypoxia rep growth: 5.4

How did O=C(NCc1ccco1)c1ccc(Br)c(S(=O)(=O)N2CCCCC2)c1 do in these assays?
Mtb hypoxia rep: -0.4; Bead autofluor: 8201; Sa ugtP lethal: 9.2; PrP 5UTR inh: 0.5; RN4220 kill: 0.4; BJeLR lethal: 0.1; Mtb hypoxia rep growth: -2.0

How did COc1ccccc1/C=C/C(=O)/C=C/c1ccccc1O do in these assays?
Mtb hypoxia rep: -1.0; Bead autofluor: 3725; Sa ugtP lethal: 20.5; PrP 5UTR inh: -53.2; RN4220 kill: 15.5; Mtb hypoxia rep growth: 8.0

How did CC(=O)CCc1c(C)c2cccc(C)c2[nH]c1=O do in these assays?
Mtb hypoxia rep: -3.8; Bead autofluor: 9169; Sa ugtP lethal: -12.8; PrP 5UTR inh: -31.3; RN4220 kill: -1.4; BJeLR lethal: 6.4; Mtb hypoxia rep growth: 1.3

How did CCC(=O)Nc1ccc(C(=O)CSc2nnc(-c3ccccc3F)n2C2CC2)cc1 do in these assays?
Mtb hypoxia rep: 10.1; Bead autofluor: 2285; Sa ugtP lethal: -27.9; PrP 5UTR inh: -12.2; RN4220 kill: 2.1; BJeLR lethal: -1.8; Mtb hypoxia rep growth: 9.6

What do the screens show for `Cc1nccn1CCCNC(=O)CC1C(=O)NCCN1Cc1ccc(Cl)c(F)c1` (configuration not stated)?
Mtb hypoxia rep: 7.5; Bead autofluor: 2747; Sa ugtP lethal: 8.1; PrP 5UTR inh: -21.6; RN4220 kill: 4.4; BJeLR lethal: 4.8; Mtb hypoxia rep growth: -0.9

2 compounds picked at random from the list so far:
What do the screens show for `CC(=O)Nc1ccc(S(=O)(=O)Nc2ccccc2C(=O)N2CCCC2)cc1`?
Mtb hypoxia rep: 14.0; Bead autofluor: 3651; Sa ugtP lethal: 8.3; PrP 5UTR inh: -23.6; RN4220 kill: 2.6; BJeLR lethal: 13.2; Mtb hypoxia rep growth: -1.3

How did CC(=O)CCc1c(C)c2cccc(C)c2[nH]c1=O do in these assays?
Mtb hypoxia rep: -3.8; Bead autofluor: 9169; Sa ugtP lethal: -12.8; PrP 5UTR inh: -31.3; RN4220 kill: -1.4; BJeLR lethal: 6.4; Mtb hypoxia rep growth: 1.3

The list continues:
How did COc1ccc(CCNC(=O)c2ccc(NC3=NC4CS(=O)(=O)CC4S3)cc2)cc1OC (configuration not stated) do in these assays?
Mtb hypoxia rep: -4.5; Bead autofluor: 3946; Sa ugtP lethal: 3.9; PrP 5UTR inh: 5.9; RN4220 kill: 2.5; BJeLR lethal: -0.3; Mtb hypoxia rep growth: -0.8

How did COCc1nnc(NC(=O)c2cc3ccccc3o2)s1 do in these assays?
Mtb hypoxia rep: -13.4; Bead autofluor: 3808; Sa ugtP lethal: -11.1; PrP 5UTR inh: -4.8; RN4220 kill: -1.4; BJeLR lethal: 9.2; Mtb hypoxia rep growth: 7.1

What do the screens show for `COCCN(C(=O)COC(=O)c1nc(Cl)ccc1Cl)c1c(N)n(Cc2ccccc2)c(=O)[nH]c1=O`?
Mtb hypoxia rep: -3.8; Bead autofluor: 4829; Sa ugtP lethal: -3.0; PrP 5UTR inh: -12.4; RN4220 kill: -2.4; BJeLR lethal: -2.4; Mtb hypoxia rep growth: 1.0

What do the screens show for `CCOC(=O)N1CC(=O)Nc2ccc(Br)cc2C1c1ccccc1` (configuration not stated)?
Mtb hypoxia rep: 0.4; Bead autofluor: 3794; Sa ugtP lethal: -0.4; PrP 5UTR inh: -0.5; RN4220 kill: 5.8; BJeLR lethal: 2.2; Mtb hypoxia rep growth: -1.2

What do the screens show for `O=[N+]([O-])c1ccccc1C=NNC(=S)NN=Cc1ccccc1[N+](=O)[O-]`?
Mtb hypoxia rep: 4.8; Bead autofluor: 3502; Sa ugtP lethal: -1.4; PrP 5UTR inh: -19.3; RN4220 kill: 6.4; Mtb hypoxia rep growth: 4.7

Results for Cc1cc(C)cc(NC(=O)CN(C)S(=O)(=O)c2cnc[nH]2)c1 ?
Mtb hypoxia rep: 13.8; Bead autofluor: 3246; Sa ugtP lethal: -0.5; PrP 5UTR inh: -15.3; RN4220 kill: -4.5; BJeLR lethal: -0.3; Mtb hypoxia rep growth: 7.5

Results for COc1ccc(NC(=O)[C@@H](NC(=O)c2ccccc2)C(C)C)cc1S(=O)(=O)N1CCCCC1 ?
Mtb hypoxia rep: 0.0; Bead autofluor: 2729; Sa ugtP lethal: -0.6; PrP 5UTR inh: -1.7; RN4220 kill: -2.7; BJeLR lethal: 2.3; Mtb hypoxia rep growth: 15.2

What do the screens show for `Cc1c(C(=O)NCCc2ccc(Cl)cc2)sc2nc3n(c(=O)c12)CCC3`?
Mtb hypoxia rep: -1.7; Bead autofluor: 4606; Sa ugtP lethal: 4.6; PrP 5UTR inh: -3.8; RN4220 kill: 1.2; BJeLR lethal: -0.8; Mtb hypoxia rep growth: 0.1

What do the screens show for `C=C(C)c1cccc(C(C)(C)NC(=O)N2CCN(C)CC2)c1`?
Mtb hypoxia rep: 10.9; Bead autofluor: 2674; Sa ugtP lethal: 2.8; PrP 5UTR inh: -8.5; RN4220 kill: 4.9; BJeLR lethal: 2.0; Mtb hypoxia rep growth: 10.5

Results for O=C(CN1C(=O)/C(=C\c2cccc(Cl)c2)Oc2ccccc21)N1CCN(c2ccccn2)CC1 ?
Mtb hypoxia rep: 12.7; Sa ugtP lethal: -6.3; RN4220 kill: 1.8; BJeLR lethal: -2.3; Mtb hypoxia rep growth: 2.7

How did O=S(=O)(NCCOCCNS(=O)(=O)c1ccccc1)c1ccccc1 do in these assays?
Mtb hypoxia rep: 5.3; Bead autofluor: 3329; Sa ugtP lethal: 8.5; PrP 5UTR inh: -17.5; RN4220 kill: 5.9; BJeLR lethal: -3.5; Mtb hypoxia rep growth: 5.7

What do the screens show for `O=C(O)c1ccc(N(Cc2ccccc2)S(=O)(=O)c2ccccc2)cc1`?
Mtb hypoxia rep: 4.1&6.0; Bead autofluor: 3869; Sa ugtP lethal: 5.4&2.5; PrP 5UTR inh: -9.2; RN4220 kill: 4.3&4.1; BJeLR lethal: -19.5&-7.3; Mtb hypoxia rep growth: 2.7&9.0

Results for Fc1ccccc1C=NNc1nc(N2CCCCC2)nc(N2CCCCC2)n1 ?
Mtb hypoxia rep: -10.7; Sa ugtP lethal: 8.2; RN4220 kill: -0.8; Mtb hypoxia rep growth: 3.3

What do the screens show for `COc1cc(OC)c2cc(C(=O)NN=Cc3cccc(OC)c3O)[nH]c2c1`?
Mtb hypoxia rep: 18.2; Sa ugtP lethal: 7.8; RN4220 kill: -10.3; Mtb hypoxia rep growth: 3.4

How did O=c1ccc2c([nH]1)CCCCCCCCCC2 do in these assays?
Mtb hypoxia rep: 1.4; Bead autofluor: 4001; Sa ugtP lethal: 6.8; PrP 5UTR inh: -4.1; RN4220 kill: 4.4; BJeLR lethal: 1.3; Mtb hypoxia rep growth: -4.4

How did c1ccc(CCCN2CCN(c3ccccc3)CC2)cc1 do in these assays?
Mtb hypoxia rep: 14.7; Bead autofluor: 3761; Sa ugtP lethal: 5.7; PrP 5UTR inh: -26.6; RN4220 kill: 1.7; BJeLR lethal: 6.0; Mtb hypoxia rep growth: -0.1

What do the screens show for `CCO[C@H]1OC(C(=O)Nc2ccccc2)=C[C@@H](c2csc3ccccc23)[C@@H]1CCCO`?
Bead autofluor: 3844; PrP 5UTR inh: -3.2; BJeLR lethal: 2.8

Results for COC(=O)Cn1c(C(=O)N2CCCC2)cc2c1C[C@H]1CN(C(=O)c3ccccc3)[C@@](Cc3ccc(F)cc3)(C(=O)OC)[C@@H]21 ?
Mtb hypoxia rep: 2.5; Bead autofluor: 3886; Sa ugtP lethal: -7.2; PrP 5UTR inh: 14.2; RN4220 kill: -8.6; Mtb hypoxia rep growth: -0.4
